VDR inh: Inhibitors of the vitamin D receptor (VDR): qHTS; Vitamin D3 receptor (Homo sapiens), P11473; VDR-SRC2-3 peptide fluorescence polarization, 2 h; Potency, µM, inactives show max response, negative = inhibition, hits mostly inhibitors; 400,000 tested, 0.93% active; AID 504847, 2011; active = well fitted inhibition curve with a large enough effect; inconclusive = small, poorly fitted or top-dose-only effect, or another doubt; inactive = no such curve, though single readings can be large or run the other way; also: series mostly up to about 120 µM
Target sequence (P11473 whole entry, looked up): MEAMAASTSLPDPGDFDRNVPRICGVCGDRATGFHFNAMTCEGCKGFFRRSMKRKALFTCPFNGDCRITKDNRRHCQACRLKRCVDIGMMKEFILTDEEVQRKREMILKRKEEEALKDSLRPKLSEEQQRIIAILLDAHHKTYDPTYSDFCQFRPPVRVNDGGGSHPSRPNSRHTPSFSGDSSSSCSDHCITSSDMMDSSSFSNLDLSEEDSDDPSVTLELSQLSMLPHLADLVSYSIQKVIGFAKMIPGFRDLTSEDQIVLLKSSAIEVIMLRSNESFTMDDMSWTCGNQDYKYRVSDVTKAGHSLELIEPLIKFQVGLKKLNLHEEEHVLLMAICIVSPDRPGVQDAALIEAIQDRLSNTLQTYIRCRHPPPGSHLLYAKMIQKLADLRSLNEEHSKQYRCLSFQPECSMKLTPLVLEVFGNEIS
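The screen uses fluorescence polarization to detect compounds that interfere with recruitment of the SRC2-3 coactivator peptide to VDR; plates are read after 2 h at room temperature.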
Starred values were filed as active, the others as inactive; u = inconclusive; & = joins results of further samples. % is scaled to controls: 0 for no effect and ±100 for the full control effect; potency is read from the fitted curve at half-maximal effect. A portion of the library, so the mix of outcomes need not match the whole.

SMILES	VDR inh
Cc1ccccc1-n1c(SCc2cccc(F)c2)nc2[nH]ncc2c1=O	-4.3%
CNC(=S)NNC(=O)COc1ccc(C)c(C)c1	-5.9%
CCCCOC(C)n1cc(F)c(=O)[nH]c1=O (configuration not stated)	-16.1%
CC(=O)Nc1c(O)c2cccc3c2n(c1=O)CCC3	-10.9%
CCCc1cc(=O)[nH]c(SCC(=O)N2CCN(S(=O)(=O)c3ccccc3)CC2)n1	-5.0%
COc1ccc(-c2cc(C(F)(F)F)n3nc(C(=O)Nc4cc(C(F)(F)F)ccc4Cl)cc3n2)cc1OC	5.7%
COc1ccc(C(=O)NCC(=O)N/N=C/c2cccnc2)cc1OC	22.0%
CCCCCCN=C1CC(C)(C)CC(=O)/C1=C(/O)CCC	2.3%
Cn1nc(C(F)(F)F)c(CNC(=O)C(C)(C)CCl)c1N1CCOCC1	-2.9%
O=Cc1c(Cl)nc2ccccn12	-5.7%
CN(C)CCCNS(=O)(=O)c1ccc(-n2nnc3ccccc32)c([N+](=O)[O-])c1	-2.0%
COc1ccc(NC(=O)C2CCN(S(=O)(=O)c3cn(C)cn3)CC2)cc1Cl	3.8%
O=C(O)c1cc(N/N=C/c2cccc3ccccc23)ccc1Cl	-12.2%
CC(C)Oc1ccc(C(=O)Nc2c3c(nn2-c2ccccc2)CS(=O)(=O)C3)cc1	0.6%
CCCN1CCN(CCCNC(=S)Nc2ccc(OC)cc2)CC1	-16.7%
COc1ccc(NC(=O)COc2ccc(C)nc2[N+](=O)[O-])cc1S(N)(=O)=O	-17.7%
COc1ccccc1-c1cc(C(=O)N/N=C\c2cnn(C)c2C)c2ccccc2n1	11.3%
Cc1nc(N2CCC(C)CC2)c(C#N)c(C)c1[N+](=O)[O-]	-3.4%
O=C(CNc1cc(S(=O)(=O)N2CCOCC2)ccc1N1CCCC1)N1CCc2ccccc21	-5.0%
CCN(CC)c1ncnc2c1cnn2Cc1ccc(C)cc1	1.9%
O=C1CC(c2cccc(Br)c2)c2cc3c(cc2N1)CCC3 (configuration not stated)	-1.6%
O=C(Nc1nonc1-c1ccc(Cl)cc1)c1ccccc1	17.9%
Cc1cc(C)c(C(=O)N2CCCC(N3CCN(c4ccc(F)cc4)CC3)C2)o1 (configuration not stated)	10.0%
O=C(c1cccc(Cl)c1Cl)N1CCN(c2ccccn2)CC1	-7.3%
COc1cccc(N2CCN(C(=O)C3CCN(S(=O)(=O)c4cn(C)cn4)CC3)CC2)c1	11.5%

Later entries.
SMILES	VDR inh
CC(=O)C1=C(O)C(=O)N(CC(=O)O)C1c1ccccc1Cl (configuration not stated)	-20.1%
COCCn1nnnc1CN1CCC(NC(=O)c2ccc(Br)cc2)CC1	-10.4%
CCOc1ccc(/C=N/n2c(SC)nnc(C(C)(C)C)c2=O)cc1	7.3%
COC(=O)c1ccc(COc2ccccc2[N+](=O)[O-])o1	-12.8%
CCOc1ccc(N=Nc2ccc(N)cc2N)cc1	u
COc1ccc(NS(=O)(=O)c2ccc(O)c([N+](=O)[O-])c2)cc1S(=O)(=O)N1CCCCC1	-0.6%
CC(C)(C)NC(=O)CN(C(=O)c1csnn1)c1ccccc1-c1ccccc1	-2.5%
Cc1ccc2c(=O)cc(C(=O)Nc3ccc(S(=O)(=O)Nc4nc(C)cc(C)n4)cc3)oc2c1	11.4%
CCCn1c(SCC(=O)Nc2ccc(OC)cc2[N+](=O)[O-])n[nH]c1=O	-11.8%
CCN(C(=O)COC(=O)c1ccc(OC)c(S(=O)(=O)N(C)Cc2ccccc2)c1)C1CCS(=O)(=O)C1 (configuration not stated)	17.9%
COc1cc2c(cc1OC)[C@@H](NC(=O)CCC1CCCCC1)[C@H](O)C2	17.9%
CCCCCCCC/C=C\CCCCCCCC(=O)NC(C)C(=O)O (configuration not stated)	-3.9%
CCCCCN(C(=O)COC(=O)c1ccc(Br)o1)c1c(N)n(CCCC)c(=O)[nH]c1=O	-15.5%
Cc1ccc2c(c1)-c1c(c(C(=O)N3CCN(c4cc(C)ccc4C)CC3)nn1C)CS2	11.0%
COc1ccc(CCNC(=O)c2ccc3c(c2)N(Cc2cccc(Cl)c2)C(=O)CS3)cc1OC	6.1%
CC1(c2ccc3c(c2)OCO3)NC(=O)N(CC(=O)Nc2ccccc2[N+](=O)[O-])C1=O (configuration not stated)	-7.9%
COC(=O)CSc1nc(-c2ccccc2)c2c(c1C#N)CCCC2	4.6%
Cc1ccc(/C=C/C(=O)NCc2ccc(S(N)(=O)=O)cc2)o1	89.1µM*
Cc1csc(SCC(=O)Nc2cc(C(N)=O)cc(C(N)=O)c2)n1	-8.9%
COc1ccc(N/C(C)=C/C(=S)Nc2ccccc2)cc1	-6.6%
O=C(N[C@@H](Cc1ccccc1)C(=O)N1CCN(S(=O)(=O)c2ccccc2F)CC1)c1ccco1	3.9%
CC(C)c1ccc(NC(=O)Cn2cccc2C2=NC(c3ccccc3)CO2)cc1 (configuration not stated)	-12.7%
CC1=C(C(=O)Nc2ccccc2)C(c2ccco2)n2ncnc2N1 (configuration not stated)	-13.9%
COc1ccc(C2=NN(C(=O)c3ccco3)C(c3ccco3)C2)cc1OC (configuration not stated)	-0.5%
Nc1c(Cl)ncnc1N/N=C/c1ccc(O)cc1	-1.5%

The last three entries of the section before lead into the next.
SMILES	VDR inh
CC1=C(C(=O)Nc2ccccc2)C(c2ccco2)n2ncnc2N1 (configuration not stated)	-13.9%
COc1ccc(C2=NN(C(=O)c3ccco3)C(c3ccco3)C2)cc1OC (configuration not stated)	-0.5%
Nc1c(Cl)ncnc1N/N=C/c1ccc(O)cc1	-1.5%
CSc1oc(-c2cccs2)nc1S(=O)(=O)c1ccc(Br)cc1	0.2%
CCOC(=O)C1(C)NC(c2ccc(OC)c(OC)c2)C2C(=O)N(CC)C(=O)C21 (configuration not stated)	-3.0%
CCS(=O)(=O)CCSC1OC(COC(C)=O)C(OC(C)=O)C(OC(C)=O)C1OC(C)=O (configuration not stated)	-6.7%
Cn1c(=O)c2c(nc(CN3CCOCC3)n2CCc2ccccc2)n(C)c1=O	-5.7%
O=S(=O)(c1cccc(Cn2nnc(-c3ccc(F)cc3)n2)c1)N1CCOCC1	9.6%
CC(NC(=O)CCCn1cc([N+](=O)[O-])cn1)c1ccccc1 (configuration not stated)	-13.2%
Cc1ccc(-n2c(=O)c3c(C)c(C(=O)N(C)C)sc3n(CC(=O)C(C)(C)C)c2=O)cc1C	13.0%
COc1ccc(CNc2ccc(-c3ccccc3OC)nn2)cc1	9.5%
CCc1cc(=O)oc2c(C)c(OC(C)C(=O)NCCCN3CCOCC3)ccc12 (configuration not stated)	14.9%
CCOc1cc(/C=C/c2nc3ccccc3s2)ccc1OCC(=O)N1CCOCC1	13.3%
Cc1cc(Br)ccc1S(=O)(=O)NCc1ccccc1	-4.0%
COc1cc(NC(=S)NC(=O)c2ccc(C)cc2C)ccc1NC(=O)c1cccs1	-4.5%
CCN1CCN(C(c2cccs2)C(C)NC(=O)c2cccnc2)CC1 (configuration not stated)	10.3%
CC(C)(C)OC(=O)C[C@@H]1C/C=C\C[C@@H](CC(=O)N[C@@H](CO)Cc2ccccc2)C(=O)NCCOC1=O	-6.2%
CCOC(=O)c1ccc(N2CCN(c3ccccc3OC)CC2)c(NC(=O)Nc2ccc(CC)cc2)c1	9.1%
Cn1c2ccccc2c2nnc(SCC(=O)NC3CC3)nc21	-5.4%
Cc1ccc(CN2C(=O)c3ccccc3NC23CCN(Cc2ccccc2)CC3)cc1	-7.7%
COc1ccc(NC(=O)CN2C(=O)CC(C)S(=O)(=O)c3ccccc32)cc1 (configuration not stated)	16.1%
CCC(C)NC(=O)CCCn1c(=O)c2cccn2c2ccccc21 (configuration not stated)	7.4%
CC(C)(C)OC(=O)NCCCCC1=CC2=CC(=O)C(C)(OC(=O)c3cnc4ccccc4n3)C(=O)C2=CO1 (configuration not stated)	0.3%
Cc1ccc(-c2cc(-c3ccccc3Cl)c(C#N)c(N)n2)o1	-9.4%
CCNC(=O)N(C)C[C@H]1N[C@@](CC)(C(=O)OC)[C@H]2C(=O)N(Cc3ccccc3)C(=O)[C@@H]12	-3.0%
COc1cc(/C=C2\SC(=S)N(CC(=O)Nc3ccccn3)C2=O)cc(OC)c1OC	-12.6%
CSC1=Nc2sc3c(c2C2=NCCN12)CC(C)(C)OC3	-26.5%
O=C(O)c1ccccc1NS(=O)(=O)c1ccc(NNC(=S)Nc2ccc(OC(F)F)cc2)c([N+](=O)[O-])c1	u

Part of the list above, as a markdown table:
| SMILES | VDR inh |
| --- | --- |
| CCN1CCN(C(c2cccs2)C(C)NC(=O)c2cccnc2)CC1 (configuration not stated) | 10.3% |
| CC(C)(C)OC(=O)C[C@@H]1C/C=C\C[C@@H](CC(=O)N[C@@H](CO)Cc2ccccc2)C(=O)NCCOC1=O | -6.2% |

Further records follow.
SMILES	VDR inh
O=C(Nc1nccs1)c1cccnc1Cl	13.0%
COC(=O)C1=CN(Cc2ccc(OC)cc2)C=C(C(=O)OC)C1c1ccsc1	17.1%
CCOc1cc(-c2nnc(-c3ccco3)o2)cc(OCC)c1OCC	19.5%
O=C(NCCc1nc2ccccc2n1CCOc1ccc(Cl)cc1)C1CCCCC1	-6.9%
O=C1C(=C2CCCCC2)SC(=S)N1Cc1ccco1	u
CC(=O)N1CCCc2cc(S(=O)(=O)N(C)CC(=O)Nc3ccc(C(C)C)cc3)ccc21	12.7%
O=C(NCc1ccc(F)cc1)C(=O)NCC(c1ccco1)S(=O)(=O)c1cccs1 (configuration not stated)	-0.8%
CCCCC(OC(=O)CN1C(=O)COc2ccccc21)C(=O)NC1CCCCC1 (configuration not stated)	-7.3%
Cc1ccc(-c2nc(CS(=O)CC(=O)NCCCN3CC(C)CC(C)C3)c(C)o2)cc1 (configuration not stated)	-9.7%
COc1ccc(NC(=O)/C=C/c2cccc(C(F)(F)F)c2)cn1	-11.4%
CC(=O)Nc1ccccc1P(=O)(c1ccccc1)c1ccccc1OC(C)=O (configuration not stated)	-10.2%
O=C(O)c1cccc(Nc2nc(-c3cccnc3)nc3ccccc23)c1	-14.0%
S=C(NC12CC3CC(CC(C3)C1)C2)N1CCOCC1	-5.6%
CCCCCC(N)=O	-1.7%&3.5%
CC(=O)/C(=N/Nc1cccc(Cl)c1)Sc1nnc(C(O)c2ccccc2)n1-c1ccccc1 (configuration not stated)	-26.9%
CCCCn1nc(C(=O)Nc2ccc3c(c2)OCO3)c2ccccc2c1=O	-18.8%
Cc1ccc(S(=O)(=O)N(CC(=O)NCc2ccccc2)C(=O)N2CCN(C)CC2)cc1	-26.1%
Cc1ccc(N2CC(NC(=O)Cc3cccs3)CC2=O)cc1C (configuration not stated)	-3.0%
C=CC[C@H](CC(=O)N[C@H](CO)Cc1ccccc1)C(=O)N[C@H](COC(=O)[C@H](CC=C)CC(=O)OC(C)(C)C)Cc1c[nH]c2ccccc12	3.0%
Cc1[nH]n(-c2ccccc2)c(=O)c1/C=N/N1CCOCC1	6.7%
CCOc1cc(-c2nn3cnnc3s2)cc(OCC)c1OCC	u
CCOC(=O)c1c(NC(=O)CSc2nnc(-c3ccco3)o2)sc(C(C)=O)c1C	17.0%
COc1cc(C(=O)Nc2ccc3nc(SCc4ccccc4)sc3c2)cc(OC)c1OC	6.7%
Cc1cc(C(=O)COC(=O)C2=COCCO2)c(C)n1-c1ccccc1	-13.9%
Cn1cccc1C1Nc2ccccc2NC2=C1C(=O)CC(C)(C)C2 (configuration not stated)	-5.4%

Additional entries:
SMILES	VDR inh
CCC/C(=N/NC(=O)c1nnn(-c2nonc2N)c1CN1CCCCC1)c1ccccc1	-24.6%
COCC(=O)n1nc(-c2ccccc2)nc1NCc1ccc(F)cc1	-11.8%
Nc1cc(OCC(F)(F)F)cc([N+](=O)[O-])c1	3.3%
Cc1ccc2nc(C3CCN(C(=O)NCc4ccccc4)CC3)[nH]c2c1	-6.1%
COC(=O)c1c(C(C)=O)c(C)n(C)c1C	-13.9%
COc1ccc(NC(=O)Cn2c(=O)n(CC3CCCO3)c(=O)c3cc(OC)c(OC)cc32)cc1OC (configuration not stated)	20.4%
Cc1cccc(N(C(=O)c2ccc(CN3CCOCC3)o2)C(C(=O)NC(C)(C)C)c2ccc(F)cc2)c1 (configuration not stated)	21.9%
O=C(NCCc1nc(-c2ccccc2)no1)c1ccco1	-15.2%
CCOC(=O)CSc1nc2c(c(=O)n(Cc3ccccc3Cl)c(=O)n2C)n1C	-14.6%
CCN1CCCC1CNC(=O)c1ccc2c(c1)NC(=O)/C(=C\c1ccc(C)cc1)S2 (configuration not stated)	14.3%
O=C(N/N=C/c1c[nH]c2ccc(Br)cc12)c1ccc2c(c1)OCO2	-17.0%
Cc1c(SCCO)c(=O)[nH]c2cc3c(cc12)OCO3	14.8%
CCO[C@H]1OC(C(=O)N2CCN(Cc3ccccc3)CC2)=C[C@@H](c2ccc(C(F)(F)F)cc2)[C@@H]1CCCO	6.3%
CCOC(=O)c1cc(-c2ccccc2)n(-c2cccc(C(=O)Nc3ccc(F)c(F)c3)c2)c1C	7.4%
Nn1c(Cc2ccccc2)nc2sc3c(c2c1=O)CCC3	-12.7%
CC(C)OC(=O)Nc1ccc2c(c1)N(C(=O)N1CCN(C)CC1)c1ccccc1CC2	13.3%
COc1cc(OC)cc(C(=O)N2CCC(c3ccncc3)CC2)c1	9.3%
Cc1ccc(-n2nc(C(=O)N3CCN(c4cc(Cl)ccc4C)CC3)c3c4ccccc4n(C)c3c2=O)cc1	-17.4%
Cn1cc(C(=O)C(F)(F)F)c2ccccc21	3.0%
CCN(C(=O)CCS(=O)(=O)c1ccc2c(c1)CCN2C(C)=O)c1cccc(C(F)(F)F)c1	-13.1%
Cc1cc(C)cc(N(CC(=O)O)S(=O)(=O)c2c(C)noc2C)c1	2.6%
O=C(Nc1ccccc1)Nc1cccc2nsnc12	0.9%

Reprinted at random: 2 entries already listed.
SMILES	VDR inh
COc1ccc(NC(=O)Cn2c(=O)n(CC3CCCO3)c(=O)c3cc(OC)c(OC)cc32)cc1OC (configuration not stated)	20.4%
Nc1cc(OCC(F)(F)F)cc([N+](=O)[O-])c1	3.3%
